Assay outcomes deposited in PubChem by National Center for Advancing Translational Sciences (NCATS).
ClpP mod: qHTS Assay for Activators of ClpP; ATP-dependent Clp protease proteolytic subunit (Bacillus subtilis (strain 168)), P80244; purified B. subtilis ClpP, FRET peptide cleavage, 20 min; Potency, µM (highest dose often 57.5 µM), inactives show at the highest dose activity change, negative = active; 1.9% of 340,000 active; AID 651965, 2013; active = well fitted falling curve with a large enough effect; inconclusive = small, poorly fitted or top-dose-only effect; inactive = no such curve, though single readings can be large or run the other way; also: potency is read from the fitted curve at half-maximal effect; the source files actives as falling curves though it sought activators and does not explain the sign; nearly all actives have a fitted effect of over 65% in size; many hits overshoot -100%
Target sequence (P80244 whole entry, looked up): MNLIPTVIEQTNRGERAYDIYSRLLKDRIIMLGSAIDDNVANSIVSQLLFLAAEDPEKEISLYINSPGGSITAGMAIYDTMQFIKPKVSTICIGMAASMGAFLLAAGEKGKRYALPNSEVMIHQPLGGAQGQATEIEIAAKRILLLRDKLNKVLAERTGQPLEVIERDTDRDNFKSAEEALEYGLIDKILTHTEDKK
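Purified B. subtilis ClpP, 10 microg/mL final in Tris/HCl pH8 with KCl, BSA, glycerol and Tween-20, cleaved an Abz/nitrotyrosine-quenched decapeptide. Fluorescence (ex 320, em 430) was read at 0 and 20 min at room temperature. Delta was normalized to 5.8 microM ADEP and DMSO/no-enzyme controls.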
gsp antagonist: qHTS for Antagonists of gsp, the Etiologic Mutation Responsible for Fibrous Dysplasia/McCune-Albright Syndrome: qHTS; AID 624288, 2012; Potency, µM (doses to about 76.9 µM), for inactives: at the highest dose activity change, negative = inhibition, most hits filed as inhibitors; gsp-mutant cells, cAMP HTRF, 30 min; control for the full effect not named in the record; 0.4% of 340,000 active; active = falling curve of any shape with a large fitted effect; inconclusive = falling curve, mostly with a smaller effect; inactive = flat or rising curve; cell line not stated here;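 also: intracellular cAMP measured with PDE inhibitor Ro 20-1724 present during compound exposure; potency is read from the fitted curve at half-maximal effect; % is scaled to controls: 0 for no effect and ±100 for the full control effect; nearly all actives have a fitted effect of over 65% in size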
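Measurement of cellular cAMP by homogeneous time-resolved fluorescence following a 30 min compound exposure at 37C. The PDE inhibitor […] was present throughout; the assay buffer was DPBS with 0.05% BSA and 0.005% Tween 20.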
gsp agonist: qHTS for Agonist of gsp, the Etiologic Mutation Responsible for Fibrous Dysplasia/McCune-Albright Syndrome: qHTS; 0.13% of 340,000 active; Potency, µM (series often up to 76.9 µM), inactives show top-dose activation (cAMP increase), usual class: activators; gsp mutant cells, cAMP HTRF, 30 min; control for the full effect not named in the record; active = well fitted activation curve with a large enough effect; inconclusive = small, poorly fitted or top-dose-only effect, or another doubt; inactive = no such curve, though single readings can be large or run the other way; cell line not stated here;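 also: phosphodiesterase inhibitor Ro 20-1724 added with compounds to block cAMP breakdown; potency is read from the fitted curve at half-maximal effect; nearly all actives have a fitted effect of over 60% in size; about a fifth of the inactives were tested at one dose only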
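Cells stably selected in G418 were plated at 2000/well, grown 16-24 hr, then given compounds in DMSO with the PDE inhibitor […] (300 uM solution added) for 30 min at 37C; cAMP was read by HTRF.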
Menin-MLL FL inh: qHTS Assay for Inhibitors Targeting the Menin-MLL Interaction in MLL Related Leukemias: Competition With Fluorescein Labeled MLL-derived Peptide; Fluorescence polarization, fluorescein-MLL peptide displacement from menin; FP activity change, % at 61.4 µM; 290,000 tested, under 10 active; AID 1766, 2009; inconclusive = falling polarisation curve, or a change in total fluorescence; inactive = total fluorescence flat and polarisation flat or rising; no compound was filed as active; the % refers to the polarisation; negative = inhibition;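 also: % of control where 0% means no effect; inhibitors lower the polarisation; unlabelled MLL peptide was the positive control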
TRPML1 inh: qHTS for Inhibitors of the Human Mucolipin Transient Receptor Potential 1 (TRPML1). Mucolipin-1 (Homo sapiens), Q9GZU1. TRPML1-inducible cells, Ca2+ dye fluorescence, FDSS; hits give low values; inhibition of EC80 agonist-evoked calcium signal. activity change, negative = inhibition, % (no concentration beside the values). 0.02% of 390,000 active; in the data active means activity change below about -50%; inconclusive means about -30% to -50%; inactive means above about -30%;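 also: stimulus is agonist 54-4 at its EC80 concentration; % is scaled to controls: 0 for no effect and ±100 for the full control effect; compound concentration not given in the record; the text of the record puts the active cut at -80%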
Target sequence (Q9GZU1 whole entry, looked up): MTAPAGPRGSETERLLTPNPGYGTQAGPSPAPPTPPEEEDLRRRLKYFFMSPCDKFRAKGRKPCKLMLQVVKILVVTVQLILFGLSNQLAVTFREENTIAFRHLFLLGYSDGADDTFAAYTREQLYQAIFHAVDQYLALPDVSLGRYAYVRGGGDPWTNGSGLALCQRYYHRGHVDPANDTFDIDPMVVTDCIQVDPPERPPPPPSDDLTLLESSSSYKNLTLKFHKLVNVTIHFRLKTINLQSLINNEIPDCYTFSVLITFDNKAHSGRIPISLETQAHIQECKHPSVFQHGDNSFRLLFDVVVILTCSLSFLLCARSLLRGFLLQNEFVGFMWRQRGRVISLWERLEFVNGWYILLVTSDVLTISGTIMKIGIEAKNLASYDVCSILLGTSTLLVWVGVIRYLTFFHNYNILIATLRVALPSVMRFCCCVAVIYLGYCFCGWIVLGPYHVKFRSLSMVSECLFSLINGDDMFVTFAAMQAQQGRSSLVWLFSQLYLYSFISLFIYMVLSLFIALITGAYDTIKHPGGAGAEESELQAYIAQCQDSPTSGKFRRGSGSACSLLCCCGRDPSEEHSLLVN
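TRPML1-DL cells, Tet-induced overnight (~16 h, 37 °C) at 1,500 cells/well, were loaded with Ca8 no-wash dye plus quencher for 45-90 min at room temperature. Compounds were pinned during FDSS kinetic reading; agonist 54-4 at EC80 (4 uM final) then added.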
TRPML1 agonist: qHTS for Agonists of the Human Mucolipin Transient Receptor Potential 1 (TRPML1); Mucolipin-1 (Homo sapiens), Q9GZU1; TRPML1-expressing cells, Ca2+ dye fluorescence, FDSS; host cell line not named in the record; reference of the full effect not given here; activation, % (test concentration not listed); 0.12% of 410,000 active; in the data active = activation above about 50%; inconclusive = about 30% to 50%; inactive = below about 30%; also: 0% is about no effect; the text of the record puts the active cut at 80%
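Tet-induced TRPML1-DL cells, 1,500 per well, cultured overnight, were loaded with a no-wash Ca2+ dye for 45–90 min. Calcium fluorescence was recorded on the FDSS for 110 s after compound addition, before the EC80 agonist (4 uM 54-4) was added.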
Active calls of the source: *; u = inconclusive; x = not tested or not shown; [ ] = remark or other dose.

No.	smiles	ClpP mod	gsp antagonist	gsp agonist	Menin-MLL FL inh	TRPML1 inh	TRPML1 agonist
1	COc1ccc(/C=N/c2oc(-c3ccccc3)cc2C#N)cc1	-7.9%	4%	8%	5.1	-3	-0.5
2	COCCCNC(=O)C1=CCN(S(=O)(=O)c2ccc(C)cc2)CC1	-0.5%	10%	u	0.3	-7	-0.7
3	CN(C)c1cccc(C(=O)OCCCC(=O)c2ccc(F)cc2)c1	-5.9%	-15%	-8%	x	2	1.8
4	CC(=O)c1cccc(NC(=S)NC2CCCCCCC2)c1	-1.9%	-1%	u	x	-5	0.6
5	COc1cc(/C=C2\SC(c3ccc(C)cc3)=NC2=O)cc(OC)c1OC	0.4%	62%[activator]	-4%	u	-2	0.5
6	CC(=O)Nc1ccc(C(=O)CSc2nnnn2C(C)C)cc1	-3.7%	-8%	-4%	4.1	-11	-0.2
7	CCOc1ccc(/C=C2/SC(=O)NC2=S)cc1	-0.8%	-22%	-26%	u	7	-0.2
8	CC1CCC(NC(=O)C2(C)Cc3ccccc3C(=O)N2Cc2ccccc2Cl)CC1 (configuration not stated)	u	x	x	x	2	-0.1
9	O=C1CCSc2ccc(Cl)cc2N1Cc1ccc(Cl)cc1	-1.5%	-17%	-86%[inhibitor]	0.6	36	1.3
10	Cc1cc(-c2ccccc2C(=O)NC2CCCCC2)on1	x	17%	3%[15.4 µM]	3.2	10	-0.4
11	COc1ccc(C(=O)NCC(=O)N/N=C/c2ccc([N+](=O)[O-])o2)cc1OC	2.3%	-22%	2%[15.4 µM]	3.5	6	-0.1
12	CCC(C)(C)C1CCC(=NNC(=S)Nc2cccnc2)CC1 (configuration not stated)	1.4%	1%	-41%[inhibitor]	0.6	3	-0.7
13	O=C(Nc1ccc(F)cc1F)C1CCN(c2ncnc3c2sc2cccc(F)c23)CC1	-24%	-16%	24%	4.6	6	0.8
14	COc1ccc(C2SCC(C(=O)O)N2C(C)=O)cc1OC (configuration not stated)	0.9%	13%	12%	-2.0	-6	0.8
15	COc1ccc(Nc2cc(C)nc3nc(C)nn23)cc1Cl	0.3%	-3%	-2%	3.0	-5	-0.1
16	CCN(N)C(=S)Nc1ccc(F)cc1	x	15%	8%[15.4 µM]	-2.7	19	-0.1
17	COc1ccc(C(CC(=O)O)NC(=O)COc2cc(C)ccc2C)cc1OC (configuration not stated)	x	4%	5%[15.4 µM]	-0.5	-2	0.4
18	C=CCOc1ccc(C(c2c(O)nc(SC)[nH]c2=O)c2c(O)nc(SC)[nH]c2=O)cc1	x	-1%	26%[15.4 µM]	x	-5	-0.8
19	Cc1c(-c2cccs2)[n+](=O)c2c(n1[O-])CCCC2	-1.4%	4%	-36%[inhibitor]	0.3	-3	-0.5
20	COc1ccc(S(=O)(=O)NCC(=O)N(CC(=O)NCc2ccccc2)Cc2ccco2)cc1	1.2%	-25%	2%[15.4 µM]	5.5	30	-1.6
21	CCOC(=O)N1C2C=CC(C2)N1C(=O)OCC	-12%	0%	-2%[15.4 µM]	x	0	0.5
22	COC(=O)C1C(=O)CC(C)(O)C(C(=O)OC)C1/C=C/c1ccccc1 (configuration not stated)	1.0%	-6%	-48%[inhibitor]	0.8	20	-0.2
23	CC(NC(=S)Nc1ccc(OC(F)F)cc1OC(F)F)C(C)(C)C (configuration not stated)	-1.4%	3%	-1%[15.4 µM]	6.3	-3	-0.6
24	CC1=C(C(=O)Nc2ccccc2)C(c2ccc(F)cc2)n2nc(SCc3cc(C)ccc3C)nc2N1 (configuration not stated)	-5.8%	x	x	x	-2	-0.7
25	CCCOc1ccc(/C=C/C(=O)Nc2ccc([N+](=O)[O-])cc2)cc1	-2.6%	-16%	-2%[15.4 µM]	5.5	-10	0.8
26	CCC(=O)Nc1ccc2nc(SCCOc3ccccc3)sc2c1	-2.5%	x	x	x	-6	2.1
27	Cc1ccc(CN(C)C(=O)COC(=O)CSc2ccc(C(N)=O)cc2[N+](=O)[O-])cc1	-3.6%	-23%	1%	x	36	1.5
28	Cn1nc(OCC(N)=O)ccc1=O	-2.3%	3%	-5%	-3.2	4	-0.8
29	O=C(Nc1cccc(Cl)c1N1CCOCC1)c1cccnc1Cl	0.5%	15%	4%[15.4 µM]	6.2	0	-0.6
30	C/C(CCc1ccc2c(c1)OCO2)=N\NC(=O)c1ccccc1Cl	0.2%	8%	-1%[15.4 µM]	5.7	3	-0.2
31	Cc1sc2nc(COC(=O)c3ccc(N4CCCC4)c([N+](=O)[O-])c3)[nH]c(=O)c2c1C	-3.9%	7%	u	20	-3	1.9
32	C[C@@H](NC(=O)[C@@H]1Cc2ccccc2CN1)C(=O)Nc1ccc2c(c1)OCCO2	-4.5%	17%	23%	-1.9	-2	0.1
33	CCCNC(=O)CN1C(=O)COc2ccc(S(=O)(=O)N3CC(C)CC(C)C3)cc21 (configuration not stated)	x	-5%	22%	x	-2	0.2
34	CCOC(=O)Cc1c(Sc2ccccc2)c2ccccc2n1C	-3.0%	-4%	-3%	3.2	12	5.8
35	Cn1c2ccc(F)cc2c2ncn(CCCN(CCO)CCO)c(=O)c21	28µM*	1%	-20%	-0.4	6	13
36	S=C(Nc1ccccc1Cl)N(Cc1ccccc1)Cc1ccccn1	x	-8%	-9%[15.4 µM]	0.5	45	1.6
37	O=C(CCS(=O)(=O)c1cc2c(cc1Cl)NC(=O)CO2)NCc1ccccc1Cl	1.4%	x	x	x	9	4.4
38	CC[C@]12c3[nH]c4ccc(Cl)cc4c3CCN1C(=O)[C@@H](CC(=O)NCCCN(C)C)C[C@@H]2C(=O)N1CCN(C(=O)C2CC2)CC1	1.4%	4%	x	x	-9	-0.8
39	Nc1ncnc2c1ncn2[C@@H]1O[C@H](CNC(=O)[C@@H](N)Cc2ccc(C(F)(F)F)cc2)[C@@H](O)[C@H]1O	0.8%	6%	x	x	26	0.2
40	COc1ccc(-c2cc(CNC(C)=O)on2)cc1	1.5%	10%	u	4.5	u	-1.1
41	Cc1cc(O)c(C(c2ccccc2Cl)N2CCCCC2)c(=O)n1Cc1ccco1 (configuration not stated)	-0.7%	x	x	x	17	1.0
42	Cc1ccc(S(=O)(=O)NCCNC(=O)C2CCCNC2=O)cc1 (configuration not stated)	1.0%	3%	-10%	2.2	9	-0.8
43	O=C(CNc1ccccc1)N/N=C/c1ccc2c(c1)OCO2	-1.8%	-15%	5%	7.6	26	0.9
44	COc1ccc(-c2noc(CCC(=O)Nc3cccc(C)c3C)n2)cc1OC	-2.1%	x	x	x	0	-1.0
45	COc1ccc(C(CC(=O)NCc2ccc(Cl)cc2)N2Cc3ccccc3C2=O)cc1OC (configuration not stated)	3.2%	x	x	x	-23	0.3
46	N#C/C(=C(/O)COC(=O)c1ccc(Cl)c(S(=O)(=O)N2CCOCC2)c1)c1nc2ccccc2[nH]1	x	5%	4%[15.4 µM]	u	18	0.2
47	Nc1nc(SCc2ccccc2Cl)ns1	-0.8%	2%	12%	4.0	-14	3.4
48	Cc1csc(Sc2ccc(S(=O)(=O)N3CCCC3)cn2)n1	x	-7%	-3%[15.4 µM]	2.4	-2	-0.6
49	O=C(COC(=O)CN1C(=O)C2CCCCC2C1=O)Nc1cc(F)ccc1F (configuration not stated)	0.7%	-14%	-25%	x	18	-0.6
50	O=C1C=C(N2CCN(c3ccccn3)CC2)C(=O)c2c(O)ccc(O)c21	-7.4%	-27%	14%	x	-13	3.1
51	Nc1ncnc2nc(SCc3ccc(Cl)cc3Cl)[nH]c12	0.7%	5%	-8%	0.4	-16	-1.4
52	CN(C(=O)CN(CCO)CC(=O)N(C)C(C)(C)Cc1ccccc1)C(C)(C)Cc1ccccc1	0.4%	-3%	x	0.3	24	51*
53	Cc1ccc(Oc2c(C(F)(F)F)oc3c(CN4CCCCC4)c(O)ccc3c2=O)cc1	-8.0%	x	x	x	5	0.7
54	Cc1cccc(NCc2nc3ccccc3n2CCOc2ccccc2C)c1	-0.7%	x	x	x	75	3.6
55	O=C1c2ccccc2C(Nc2cccc(C(F)(F)F)c2)N1Cc1ccco1 (configuration not stated)	-0.2%	u	-32%[inhibitor]	2.5	-7	-0.5
56	COc1cc(S(N)(=O)=O)c(OC)cc1N	-5.5%	4%	-16%	-0.7	2	-0.1
57	COc1cc(/C=N/NC(=O)c2nnn(-c3nonc3N)c2C(C)C)ccc1O	-5.6%	-5%	u	x	20	2.2
58	O=C1CN(C(=O)c2ccccc2F)C(c2ccccc2)c2cc(Cl)ccc2N1 (configuration not stated)	0.3%	-26%	2%	2.0	-22	1.2
59	COc1ccc(C(c2nnnn2Cc2cccs2)N2CCN(c3ccc(F)cc3)CC2)cc1OC (configuration not stated)	0.0%	-8%	9%	2.6	25	3.7
60	Cc1cccc(N2CCN(C(=O)c3cccc(N4C(=O)C5C6C=CC(C6)C5C4=O)c3)CC2)c1C (configuration not stated)	-0.1%	-27%	u	2.5	-1	-0.5

(continued)
No.	smiles	ClpP mod	gsp antagonist	gsp agonist	Menin-MLL FL inh	TRPML1 inh	TRPML1 agonist
61	COc1ccc(C(=O)OCc2c(-c3ccccc3)ncc3ccccc23)cc1	u	-19%	4%	x	-8	2.2
62	[O-][n+]1c2ccccc2c2n1CCN=C2c1ccc(Cl)cc1	-1.4%	0%	17%	x	4	-0.7
63	OCC[C@@H]1C[C@@H](O)[C@H](O)[C@]2(Cc3ccccc3O2)O1	0.6%	3%	u	3.6	6	-0.1
64	CC1CN(C(=O)c2cc3cc([N+](=O)[O-])ccc3s2)CC(C)O1 (configuration not stated)	-1.3%	-3%	-7%[15.4 µM]	0.0	0	-1.2
65	CC(C)(C)c1ccc(CSC2=Nc3ccccc3C3=NC(CC(=O)NCc4cccs4)C(=O)N23)cc1 (configuration not stated)	-7.1%	x	x	x	50	4.7
66	Cc1ccc(NC(=O)CN2C(=O)NC(Cc3ccccc3)C2=O)cc1Cl (configuration not stated)	1.1%	6%	-1%	x	-4	-0.6
67	O=C(Nc1ncc(Cc2ccccc2Cl)s1)C1=NCCN1	0.7%	-13%	-23%	1.2	-1	1.5
68	COCCn1c(=O)[nH]c2cc(C(=O)N3CCN(Cc4ccc5c(c4)OCO5)CC3)ccc2c1=O	-1.6%	-16%	4%	x	28	-0.1
69	O=C(COC(=O)c1cccc(F)c1)NC(=O)NCc1ccccc1	0.7%	19%	40%	x	11	1.5
